Rango-impB inh – qHTS Assay for Inhibitors of Rango (Ran-regulated importin-beta cargo) - Importin beta complex formation. Potency, µM (series often up to 92.2 µM), for inactives: at the highest dose inhibition of complex formation. Importin subunit beta-1 (Homo sapiens), Q14974. Rango CFP/YFP FRET sensor + importin beta, 45 min. 0.031% of 340,000 active; active = rising FRET ratio curve, often small or poorly fitted; inconclusive = mostly compound fluorescence or quenching in the first reads; inactive = flat curves in all reads;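 note: potency is the fitted concentration of half-maximal effect; 0% = DMSO wells and 100% = buffer wells lacking importin beta; nearly all actives have a fitted effect of over 15% in size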
Target sequence (Q14974 whole entry, looked up): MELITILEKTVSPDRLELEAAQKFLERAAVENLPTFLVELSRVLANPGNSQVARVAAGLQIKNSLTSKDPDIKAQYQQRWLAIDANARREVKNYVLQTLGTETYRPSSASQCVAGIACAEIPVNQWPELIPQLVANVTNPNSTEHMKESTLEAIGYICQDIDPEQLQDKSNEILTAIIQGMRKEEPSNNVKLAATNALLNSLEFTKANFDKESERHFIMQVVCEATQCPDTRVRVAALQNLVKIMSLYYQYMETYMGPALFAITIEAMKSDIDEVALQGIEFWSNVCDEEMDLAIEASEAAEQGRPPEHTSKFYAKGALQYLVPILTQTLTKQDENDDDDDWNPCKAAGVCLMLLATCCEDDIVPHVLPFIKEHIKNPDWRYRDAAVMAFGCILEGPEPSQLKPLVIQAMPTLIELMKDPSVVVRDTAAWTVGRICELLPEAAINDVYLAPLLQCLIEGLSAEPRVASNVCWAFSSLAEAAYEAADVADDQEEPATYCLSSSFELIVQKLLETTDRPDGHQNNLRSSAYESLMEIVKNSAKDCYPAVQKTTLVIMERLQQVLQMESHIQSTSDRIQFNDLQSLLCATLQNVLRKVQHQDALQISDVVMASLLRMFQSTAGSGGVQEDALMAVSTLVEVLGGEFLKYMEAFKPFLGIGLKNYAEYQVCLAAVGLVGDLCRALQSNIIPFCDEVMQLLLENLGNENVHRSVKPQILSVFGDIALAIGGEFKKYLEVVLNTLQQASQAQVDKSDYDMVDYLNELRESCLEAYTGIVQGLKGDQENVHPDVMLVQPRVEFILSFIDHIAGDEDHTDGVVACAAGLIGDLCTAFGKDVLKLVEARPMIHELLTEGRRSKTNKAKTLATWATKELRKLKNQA
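Inhibition scored from the CFP 486 nm/YFP 530 nm FRET ratio 45 min after adding 0.125 microM importin beta to 50 nM Rango biosensor preincubated 5 min with compound (room temperature, PBS with DTT, Tween-20, BSA). No-importin wells as positive control.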
Rango release inh – qHTS Assay for Inhibitors of RanGTP induced Rango (Ran-regulated importin-beta cargo) - Importin beta complex dissociation; Potency, µM (doses to about 46.1 µM), without a hit: top-dose activity change, negative = inhibition; Snurportin-1 (Homo sapiens) + GTP-binding nuclear protein Ran (Homo sapiens) + Importin …; AID 540253, 2011; Biochemical FRET Rango-importin beta, RanGTP-induced dissociation; 0.071% of 340,000 active; active means falling FRET ratio curve, often poorly fitted, with flat reads before Ran was added; inconclusive means other falling curves, or compound fluorescence or quenching; inactive means flat or rising ratio curve;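 note: potency is the fitted concentration of half-maximal effect; % of control where 0% means no effect; nearly all actives have a fitted effect of over 45% in size; -100% = wells without RanGTP and RCC1; the record marks most hits as doubtful in a second field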
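Two FRET readings bracket the reaction: one 5 min after compound meets Rango–importin beta, another 45 min after RanGTP-RCC1 (0.6 uM Ran, 0.2 uM RCC1, 2 mM GTP) is added. Only the second defines inhibition.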
miR-21 FLuc – qHTS Assay for Modulators of miRNAs and/orActivators of miR-21; HeLa miR-21 FLuc reporter, luciferase, 48 h; 340,000 tested, under 10 active; Potency, µM (top dose mostly 38.3 µM), inactives show at the top dose reporter change, positive = more light; active = well fitted rising curve with a large enough effect; inconclusive = small, poorly fitted or top-dose-only effect; inactive = no such curve, though single readings can be large or run the other way;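 note: % of control where 0% means no effect; miR-21 action dims this reporter so a rising signal means less miR-21 action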
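HeLa miR-21-FLuc reporter line, endogenous miR-21; 2000 cells/well in DMEM/10% FBS; compound titration up to ~40uM final, 48 h, 37 degree Celsius; luciferase detection reagent, 15 min lysis, CCD luminescence.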
GLA inh pH 4.5 – qHTS Assay for Inhibitors of Human alpha-Galactosidase at pH 4.5; Alpha-galactosidase A (Homo sapiens), P06280; purified enzyme, 4-MU-alpha-Gal fluorescence, pH 4.5; activity change, negative = inhibition, % at 105 µM; 230,000 tested, under 10 active; AID 1467, 2008; inconclusive = small, poorly fitted or top-dose-only inhibition, or a rising curve; inactive = flat fitted curve, though single readings scatter; no compound was filed as active;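 note: 0% = full activity with enzyme and -100% = basal without enzyme; dose as in the result columns while the protocol names 77 µM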
The depositor's hits bear a star; ? = inconclusive; . = not tested or not shown; & = joins results of further samples; [ ] = remark or other dose. Only part of the results is shown (hit frequency here may not be typical).

SMILES	Rango-impB inh	Rango release inh	miR-21 FLuc	GLA inh pH 4.5
COc1ccc(C2CC(c3cccc(C)c3)n3ncnc3N2)cc1 (stereo unspecified)	?	-29%	-5%	-5
CC1CCN(S(=O)(=O)N2CCC(C(=O)NC3CCCC3)CC2)CC1	-1.7%	0%	4%	-8
Cc1ccccc1CN(C)CCc1ccccn1	-0.5%	11%	3%	0
O=C(c1cc(=O)[nH]c2ccccc12)N1CCN(Cc2ccc3c(c2)OCO3)CC1	?	1%	.	.
Cc1ccc(S(=O)(=O)NC(=O)Nc2ccc(OC(F)F)cc2)cc1	0.7%	-1%	-1%	0
CC(C)(C)OC(=O)N1CCC(C(=O)N2CCCCCC2)CC1	4.3%	0%	-4%	-3
Cn1ncc(Br)c1NC(=O)Nc1ccc(OC(F)(F)F)cc1	4.1%	4%	10%	6
Cc1cccc(N2CCN(C(=O)NC3CCCCC3)CC2C)c1 (stereo unspecified)	1.7%	1%	-2%	.
O=C(Nc1ccc(N2CCCCC2)c(C(=O)O)c1)c1ccco1	-3.3%	1%	-28%	-4
CN(C)S(=O)(=O)c1cccc(NC(=O)COc2ccccc2C(=O)NCc2ccccc2)c1	-3.6%	-11%	.	.
CCc1n[nH]c(=S)n1/N=C/c1ccc(NC(C)=O)cc1	-0.3%	-15%	-1%	3
Nc1scc(-c2ccncc2)c1Cl	-1.7%	-5%	-53%	-3
Cc1ccccc1C(=O)NC(CC(C)C)C(=O)OCc1cc(=O)n2cc(Br)ccc2n1 (stereo unspecified)	0.6%	-1%	-18%	3
CC(=O)Nc1ccc(NC(=O)Cc2ccc(-c3ccccc3)cc2)cc1	-1.8%	15%	1%	.
Cc1ccc(S(=O)(=O)NC2=NCN(Cc3cccnc3)CN2)cc1	1.3%	-6%	1%	0
Cc1ccccc1Cn1cnc2c(oc3ccccc32)c1=O	1.8%	-4%	-22%&-2%	-5
Clc1ccccc1CSC1=NCCCN1	4.1%	10%	0%	-3
Cc1ccc(C(=O)OC/C(O)=C(\C#N)c2nc3ccccc3[nH]2)cc1S(=O)(=O)N1CCOCC1	?	-8%	8%	18
CCC1CCCCN1C(=S)NC(=O)c1ccc(F)c(S(=O)(=O)N2CCOCC2)c1 (stereo unspecified)	-0.1%	35%	-3%	-2
Cc1cccc(NS(=O)(=O)c2cccc(C(=O)NCC(c3ccco3)N3CCCCC3)c2)c1 (stereo unspecified)	1.5%	-9%	.	.
C/C(CCc1ccc2c(c1)OCO2)=N\NC(=O)c1ccccc1	3.0%	-21%	-69%	5
COc1cccc(CNC(=O)Cc2ccc(S(=O)(=O)N3CCOCC3)s2)c1	-1.9%	-13%	.	.
CN(C)CC(CCCCC(CN(C)C)C(=O)c1ccccc1)C(=O)c1ccccc1 (stereo unspecified)	-2.9%	1%	26%	-1
CON(C)C(=O)CCN(Cc1ccccc1)C(=O)OC(C)(C)C	-0.7%	0%	.	.
Cc1c(C(=O)Nc2ccncc2)oc2c1C(=O)CC(C)(C)C2	4.2%	14%	-3%	6

The closing 6 compounds of the section above are carried over, then new ones follow:
SMILES	Rango-impB inh	Rango release inh	miR-21 FLuc	GLA inh pH 4.5
Cc1cccc(NS(=O)(=O)c2cccc(C(=O)NCC(c3ccco3)N3CCCCC3)c2)c1 (stereo unspecified)	1.5%	-9%	.	.
C/C(CCc1ccc2c(c1)OCO2)=N\NC(=O)c1ccccc1	3.0%	-21%	-69%	5
COc1cccc(CNC(=O)Cc2ccc(S(=O)(=O)N3CCOCC3)s2)c1	-1.9%	-13%	.	.
CN(C)CC(CCCCC(CN(C)C)C(=O)c1ccccc1)C(=O)c1ccccc1 (stereo unspecified)	-2.9%	1%	26%	-1
CON(C)C(=O)CCN(Cc1ccccc1)C(=O)OC(C)(C)C	-0.7%	0%	.	.
Cc1c(C(=O)Nc2ccncc2)oc2c1C(=O)CC(C)(C)C2	4.2%	14%	-3%	6
Cc1cc(N2CCN(C)CC2)nc2ccc(NC(=O)CCC(=O)N3CCN(c4ccc([N+](=O)[O-])cc4)CC3)cc12	2.9%	-3%	20%	.
CC1(C)Cc2cccc(OCC(=O)N3CCN(c4ccc(F)cc4)CC3)c2O1	?	-20%	.	.
Cc1cc(C(=O)NN=C(CCC(=O)O)c2cccs2)c(C)o1	1.8%	-7%	.	.
Cc1oc(-c2ccccc2)nc1CS(=O)CC(=O)NC1CCCCCC1 (stereo unspecified)	-1.7%	4%	-1%	.
O=C(C[n+]1ccccc1)Nc1ccc(Oc2ccccc2)cc1	0.4%	0%	5%	-7
CCN(CC(=O)Nc1ccc(C(=O)Nc2ccc(OC)cc2)cc1)Cc1nc2ccccc2c(=O)[nH]1	0.7%	-13%	-19%	7
O=C(COC(=O)c1ccccc1Nc1ccccc1F)c1ccccc1	?	-5%	-17%	-1
CCOc1ccc(S(=O)(=O)N2CCN(S(=O)(=O)c3ccc(C)c(C)c3)CC2)cc1	2.7%	20%	1%	.
CCOc1ccc(NC(=O)COc2ccc(C(=O)NC3CCCc4ccccc43)cc2OC)cc1 (stereo unspecified)	?	5%	-6%	0
Cc1noc(C)c1C(=O)Nc1nc2ccc(Cl)cc2s1	9.2%	17%	-21%	.
CCCCOC(=O)c1ccc(NC(=O)/C=C/c2cccs2)cc1	0.5%	-16%	-25%	-7
COc1ccc(C(=O)C2CCCN(Cc3cnc(N4CCCC4)s3)C2)cc1OC (stereo unspecified)	-0.1%	5%	-5%	2
Cc1cc(C)n2nc(SCC(=O)NC3CCCC(C)C3C)nc2n1 (stereo unspecified)	1.4%	20%	2%	.
CC(=O)C1=C(O)C(=O)N(c2ccc(S(N)(=O)=O)cc2)C1c1ccccc1F (stereo unspecified)	-3.3%	-1%	0%	-2
O=c1c2c(nc3nc(NCc4cccc5ccccc45)[nH]n13)CCC2	0.5%	1%	0%	3
O=C(CSc1ccc(Cl)cc1)NC(=O)c1ccccc1	2.3%	14%	.	.
O=C(CSc1nc2ccccc2c(=O)n1-c1ccc(F)cc1)Nc1cc(S(=O)(=O)N2CCOCC2)ccc1Cl	-4.0%	4%	-17%	0
Cc1ccc2[nH]c(=O)c(CN(CCCO)S(=O)(=O)c3cccc4nsnc34)cc2c1	4.6%	-5%	-6%	-5
COc1ccc(CC(=O)NNC(=O)c2ccc(Br)o2)cc1	3.8%	-4%	-3%	.
O=C(NCCN1CCOCC1)Nc1ccc(Cl)cc1	-0.3%	32%	-9%	-4
O=C1NC(=S)N/C1=C/C=C/c1ccccc1	0.1%	-2%	-18%	-6
Cc1ccc(N2CCN(S(=O)(=O)c3ccc4oc(=O)ccc4c3)CC2)cc1Cl	-8.2%	6%	-3%	.
COc1ccc(CCNC(=O)/C(C#N)=C2\N=C(NC(=O)c3ccco3)c3ccccc32)cc1	?	?	-3%	-7
CCCCn1nnc(NC(=O)CCC)n1	-2.8%	-2%	-1%	5
CCOC(=O)c1ccc(NC(=O)c2ccc(CN3CCc4ccccc4C3)cc2)cc1	-3.8%	5%	15%	.

(next part)
SMILES	Rango-impB inh	Rango release inh	miR-21 FLuc	GLA inh pH 4.5
O=C(COc1ccc(S(=O)(=O)N2CCCC2)cc1Cl)NCc1ccco1	-5.0%	-9%	-3%	-1
Cc1c(NC(=O)c2ccc(NC(=O)C3CC3)cc2)cccc1C(=O)O	0.1%	13%	0%	.
CCOC(=O)C1CCC(CNCc2ccc(Cl)cc2)CC1 (stereo unspecified)	-4.8%	0%	-4%	-2
NC(=O)NN=C1CCn2cccc21	0.1%	-17%	.	.
COc1ccc(Cl)cc1C(=O)NNC(=O)COC(=O)CCN=C1NS(=O)(=O)c2ccccc21	-3.8%	-8%	.	.
CC(C)Nc1nc(N)c(C(=O)C23CC4CC(CC(C4)C2)C3)s1	3.6%	-15%	1%	9
O=C(c1cccs1)N1CCCC(N2CCN(c3cccc(C(F)(F)F)c3)CC2)C1 (stereo unspecified)	1.2%	0%	20%	.
C=CCN(Cc1cn(C)nc1-c1cccc(Cl)c1)C1CCS(=O)(=O)C1 (stereo unspecified)	10.0%	10%	0%	7
O=C(COC(=O)CC(c1ccccc1)c1ccccc1)NCc1ccc(Cl)cc1	-3.7%	3%	19%	-6
COc1ccc(S(=O)(=O)N(C)C)cc1NC(=O)c1ccc2c(c1)OCCO2	3.6%	0%	.	.
Cc1ccccc1C(=O)Nc1cccc(C(=O)N/N=C/c2ccc3c(c2)OCO3)c1	-3.3%	-10%	9%	.
C=CCSc1nnnn1-c1ccc(OC)cc1	-0.9%	?	1%	1
N#Cc1c(SCC(=O)Nc2ccc(C(F)(F)F)cc2)sc2c(O)cc(=O)[nH]c12	2.0%	-4%	3%	.
O=C(CC(=O)NC1CCCCC1)N/N=C/c1ccccc1[N+](=O)[O-]	4.7%	11%	-37%	.
Cc1c(CN2CCN(C)C(CCO)C2)[nH]c2c(Cl)cccc12 (stereo unspecified)	?	-9%	0%	.
Cc1cc2c(NS(=O)(=O)c3ccc(F)cc3)cccc2nn1	0.7%	2%	8%	4
CC(C)(C)NC(=O)CN(C(=O)C(=O)Nc1ccc2c(c1)OCCO2)C(C)(C)C	1.1%	0%	0%	-3
CC(C)(CO)NC(=O)c1ccc2c(c1)C(=O)c1ccccc1-2	-0.3%	-3%	-69%	.
CC(C)c1ccccc1NC(=S)NC1CCN(Cc2ccccc2)CC1	1.1%	-7%	1%	-2
N#Cc1c(N)n(C2CCCCC2)c2nc3ccccc3nc12	?	?	-17%	8
Cc1ccnc(N2CCN(C(=O)CSc3nc4ccccc4nc3N3CCCCC3)CC2)c1	-5.1%	15%	-1%	-15
S=c1nc[nH]c2c1ncn2-c1ccc(Cl)cc1	-2.9%	-2%	.	.
COC(=O)C1CCN(C(=O)Nc2ccc(OC)cc2)CC1	-0.2%	-4%	-5%	4
COc1ccc(CC(=O)Nc2ccc(N(C)C)c3ccccc23)cc1	-3.2%	-24%	5%	.
Cc1ccc(S(=O)(=O)N2CCCN(S(=O)(=O)C3CCS(=O)(=O)C3)CC2)cc1 (stereo unspecified)	3.5%	7%	-4%	-4

Additional records:
SMILES	Rango-impB inh	Rango release inh	miR-21 FLuc	GLA inh pH 4.5
Cc1ccsc1C(=O)OCC(=O)Nc1cccc(S(=O)(=O)NC2=NCCCCC2)c1	-0.2%	3%	-1%	0
O=C(N/C(=C\c1ccccc1)C(=O)N1CCOCC1)c1ccc(Br)o1	0.2%	-7%	-1%	.
Cc1ccc(S(=O)(=O)N/N=C\c2ccc3c(c2)OCO3)cc1C	2.2%	-6%	-1%	.
C=C(C)CN1CCN(c2ccc(N3C(=O)CCCC3=O)cc2[N+](=O)[O-])CC1	-0.1%	6%	-4%	2
C=CCn1c(Cc2cccs2)nnc1SCC(=O)c1ccc(F)cc1	-1.8%	-13%	-19%	5
COCC(C)NC(=O)c1cc(OC)cc(OC)c1 (stereo unspecified)	0.5%	2%	-5%	-1
CC(C)c1ccccc1OCC(O)CN(CC(O)COc1cccc2ccccc12)C(C)C (stereo unspecified)	-4.4%	31%	16%	.
CCc1sc(N(C(=O)Cc2ccccc2)c2cccc(F)c2)nc1-c1ccc(C)cc1	2.2%	9%	-4%	-1
CC1CCN(Cc2c(O)ccc3c(=O)c(-c4nc5ccccc5s4)c(N)oc23)CC1	3.7%	3%	-30%	-1
O=C(C1CCC(CNc2nc(=S)[nH]c3ccccc23)CC1)N1CCN(c2ccc(F)cc2)CC1 (stereo unspecified)	0.0%	4%	17%	7[21.1 µM]
Cn1nc(C(=O)NCCCN2CCCCC2)c2c1-c1ccccc1SC2	1.3%	-9%	1%	.
CC(=O)OCC(CCn1cnc2cnc(N)nc21)COC(C)=O	.	.	-1%	6&-3
CC(=O)Nc1ccc2[nH]c(C)cc(=O)c2c1	-0.4%	-4%	0%	-1
CCOC(=O)N1CCC(NS(=O)(=O)c2ccc3c(c2)oc(=O)n3C)CC1	-1.3%	25%	0%	-1
COc1ccc(CCN(Cc2cc3cc(C)cc(C)c3nc2Cl)C(=O)C2CC2)cc1	3.5%	1%	6%	-3
COC(=O)c1cccc(CSc2nnc(-c3ccco3)n2-c2ccccc2)c1	-5.1%	-7%	-9%	-3

From PubChem BioAssay
